Screens (PubChem BioAssay)
gsp antagonist – antagonists of gsp mutant (McCune-Albright syndrome) | gsp-mutant cells, cAMP HTRF, 30 min; control for the full effect not named in the record | Potency, µM (doses to about 76.9 µM), inactives show top-dose activity change, negative = inhibition, most hits filed as inhibitors | actives 0.4% (n = 340,000) | AID 624288; active = falling curve of any shape with a large fitted effect; inconclusive = falling curve, mostly with a smaller effect; inactive = flat or rising curve; cell line not stated here;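 further: intracellular cAMP measured with PDE inhibitor Ro 20-1724 present during compound exposure; potency means the concentration at half of the fitted maximal effect; on the % scale 0 is the no-effect control and ±100 the full control effect; nearly all actives have a fitted effect of over 65% in size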
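G418-selected cells were plated in DMEM/10% FBS for 16-24 h at 37C, then treated with compounds plus the PDE inhibitor […] (300 uM solution added) for 30 min at 37C. Intracellular cAMP was measured by HTRF after 30 min lysis at room temperature.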
Sfp PPTase inh – Sfp phosphopantetheinyl transferase inhibition; Biochemical Sfp PPTase activity, qHTS; Potency, µM, for the others: max response, negative = inhibition, hits mostly inhibitors; actives 3.5% (n = 310,000); Q9F4F7; AID 1490; active means well fitted inhibition curve with a large enough effect; inconclusive means small, poorly fitted or top-dose-only effect, or another doubt; inactive means no such curve, though single readings can be large or run the other way;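 further: the enzyme is Sfp with the accession as filed and its product quenches rhodamine fluorescence; potency means the concentration at half of the fitted maximal effect; 0% = enzyme reaction without inhibitor and -100% = no enzyme wells; top concentration of the series not given in the record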
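After 15 min at room temperature with compound, 15 nM Sfp received 5 uM rhodamine-CoA plus 12.5 uM BHQ-2-ybbR (50 mM Hepes pH 7.6, 10 mM MgCl2). Rate came from the fluorescence difference over 30 min, ex 525/em 598 nm.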
TRPV1 potentiator – human TRPV1 potentiation. potentiation, % at 8.33 µM. actives 0.02% (n = 320,000). AID 540277. Q8NER1. TRPV1-expressing cells, Fluo-8 calcium influx, capsaicin EC20 potentiation; host cell line not named in the record; control for the full effect not named in the record; active means potentiation above 80%; inconclusive means 30% to 80%; inactive means below 30%; further: 0% is about no effect
Target sequence (Q8NER1 whole entry, looked up): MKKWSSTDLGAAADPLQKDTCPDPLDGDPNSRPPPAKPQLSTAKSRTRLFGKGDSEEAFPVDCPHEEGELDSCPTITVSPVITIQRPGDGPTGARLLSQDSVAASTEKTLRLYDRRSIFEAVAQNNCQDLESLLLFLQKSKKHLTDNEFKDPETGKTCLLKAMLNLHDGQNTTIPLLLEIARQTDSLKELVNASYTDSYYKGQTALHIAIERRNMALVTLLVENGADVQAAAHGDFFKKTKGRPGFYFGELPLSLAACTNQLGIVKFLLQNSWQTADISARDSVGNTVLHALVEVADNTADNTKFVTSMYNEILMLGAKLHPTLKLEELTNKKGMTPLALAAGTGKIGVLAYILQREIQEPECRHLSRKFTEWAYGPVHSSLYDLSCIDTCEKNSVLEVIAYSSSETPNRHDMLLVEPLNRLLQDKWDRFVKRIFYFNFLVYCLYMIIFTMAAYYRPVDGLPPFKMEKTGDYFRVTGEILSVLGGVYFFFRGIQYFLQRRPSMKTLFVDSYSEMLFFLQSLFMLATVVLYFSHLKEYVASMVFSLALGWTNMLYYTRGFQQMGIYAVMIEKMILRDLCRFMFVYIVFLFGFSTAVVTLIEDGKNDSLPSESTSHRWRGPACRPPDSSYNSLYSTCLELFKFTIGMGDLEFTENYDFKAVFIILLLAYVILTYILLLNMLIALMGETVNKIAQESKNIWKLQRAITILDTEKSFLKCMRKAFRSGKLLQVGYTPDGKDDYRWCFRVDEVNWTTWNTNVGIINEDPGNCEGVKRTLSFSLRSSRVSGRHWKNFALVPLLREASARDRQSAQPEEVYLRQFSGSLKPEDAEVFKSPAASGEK
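TRPV1-expressing cells were cultured overnight at 35.5C and loaded with Fluo-8 calcium dye for 40 to 90 min at room temperature. After a 10 s baseline, compound was added and calcium influx was read kinetically for 3 min (ex 480/em 520 nm).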
Menin MLL FP FL – inhibitors of human menin-MLL interaction, wild-type MLL peptide. FP activity change, % at 61.4 µM. 290,000 tested, under 10 active. Fluorescence polarization, fluorescein-MLL peptide displacement from menin. AID 1766; inconclusive = falling polarisation curve, or a change in total fluorescence; inactive = total fluorescence flat and polarisation flat or rising; no compound was filed as active; the % refers to the polarisation; negative = inhibition;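 further: % of control where 0% means no effect; inhibitors lower the polarisation; unlabelled MLL peptide was the positive control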
ClpP mod – qHTS Assay for Activators of ClpP; ATP-dependent Clp protease proteolytic subunit (Bacillus subtilis (strain 168)), P80244; purified B. subtilis ClpP, FRET peptide cleavage, 20 min; Potency, µM (titrated, usually from 57.5 µM), inactives show at the highest dose activity change, negative = active; actives 1.9% (n = 340,000); AID 651965, 2013; active = well fitted falling curve with a large enough effect; inconclusive = small, poorly fitted or top-dose-only effect; inactive = no such curve, though single readings can be large or run the other way; further: potency means the concentration at half of the fitted maximal effect; the source files actives as falling curves though it sought activators and does not explain the sign; nearly all actives have a fitted effect of over 65% in size; many hits overshoot -100%
Target sequence (P80244 whole entry, looked up): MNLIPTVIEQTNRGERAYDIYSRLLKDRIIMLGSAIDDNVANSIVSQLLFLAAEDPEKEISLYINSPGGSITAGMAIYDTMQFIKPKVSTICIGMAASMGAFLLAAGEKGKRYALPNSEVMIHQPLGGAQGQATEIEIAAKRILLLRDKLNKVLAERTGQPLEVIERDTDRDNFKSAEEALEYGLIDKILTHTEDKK
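Buffer: 100 mM Tris/HCl pH8, 100 mM KCl, 0.05% low protease BSA, 2.5% glycerol, 0.01% Tween-20. ClpP 10 microg/mL final; 20 min RT; delta FRET normalized to ADEP and DMSO controls.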
gsp agonist – agonists of gsp mutant (McCune-Albright syndrome). gsp mutant cells, cAMP HTRF, 30 min; control for the full effect not named in the record. actives 0.13% (n = 340,000). Potency, µM (top dose mostly 76.9 µM), inactives show top-dose activation (cAMP increase), actives largely listed as activators; active = well fitted activation curve with a large enough effect; inconclusive = small, poorly fitted or top-dose-only effect, or another doubt; inactive = no such curve, though single readings can be large or run the other way; cell line not stated here;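 further: phosphodiesterase inhibitor Ro 20-1724 added with compounds to block cAMP breakdown; potency means the concentration at half of the fitted maximal effect; nearly all actives have a fitted effect of over 60% in size; about a fifth of the inactives were tested at one dose only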
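Cells in DMEM/10% FBS with G418 were pretreated with compounds in DMSO plus […] (300 uM stock) for 30 min at 37C. cAMP was measured by HTRF (cAMP-d2 plus anti-cAMP antibody-K) after 30 min at room temperature.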
CtBP-E1A blk – CtBP/E1A binding inhibition; AlphaScreen GST-E1A/His-CtBP binding, 1536-well; active compounds read low; control for the full effect not named in the record; activity change, % (concentration not given with the values); actives 0.49% (n = 340,000); AID 651724; in the data active means activity change below about -65%; inconclusive means about -30% to -65%; inactive means above about -30%; further: on the % scale 0 is the no-effect control and ±100 the full control effect
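GST-E1A and His-tagged CtBP (125 nM each as 5X stock) were preincubated with pin-transferred compound for 2 h at 37 °C in the dark, then glutathione donor and nickel acceptor beads were added for 1 h before AlphaScreen reading.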
Numbers without * were called inactive; ? = inconclusive; nt = no result given; & = joins results of further samples; [ ] = remark or other dose.

SMILES	gsp antagonist	Sfp PPTase inh	TRPV1 potentiator	Menin MLL FP FL	ClpP mod	gsp agonist	CtBP-E1A blk
CCN(CC)c1ccc(/C=C(\C#N)c2nc(-c3cccs3)c(NC(C)=O)s2)cc1	nt	?	26	?	nt	nt	nt
CCCOc1ccc(-c2nc(C#N)c(N3CCN(CC)CC3)o2)cc1	-4%	-17%	-7	0.7	28µM*	-34%[inhibitor]	-18
Cc1nnc(SC(C(=O)Nc2cc(Cl)cc(Cl)c2)c2ccccc2)[nH]c1=O (stereo not given)	-23%	-29%	14	-1.1	0.3%	?	nt
O=C1C=CC(=O)N1c1ccc2c(c1)Cc1cc(F)ccc1-2	10%	nt	nt	nt	nt	?	-1
Cc1ccc(S(=O)(=O)N2CCOCC2)cc1C(=O)OCC(=O)N1CCc2ccccc2C1	-9%	7%	-3	-1.0	1.3%	9%	0
O=[N+]([O-])c1cc(CN2CCC(O)CC2)ccc1Cl	9%	-13%	-7	-2.6	1.1%	-1%[15.4 µM]	3
CCCOc1cccc(C2/C(=C(/O)c3ccncc3)C(=O)C(=O)N2CCCN(C)C)c1 (stereo not given)	nt	11%	-8	2.7	nt	nt	nt
CSCCC(NS(=O)(=O)c1ccc(C)cc1)C(=O)N1CCCC1 (stereo not given)	11%	-3%	10	-12	nt	-12%	1
COc1cc(C2/C(=C(\O)c3ccc4c(c3)OCCO4)C(=O)C(=O)N2Cc2ccco2)ccc1O (stereo not given)	4%	4%	18	nt	-2.4%	-24%	-15
COC(=O)c1cc(S(=O)(=O)N2CCN(Cc3ccccc3)CC2)cn1C	7%	16%	-9	-7.7	1.6%	-65%	0
O=S(=O)(NCc1cc(-c2ccccc2Cl)no1)c1ccccc1	?	-4%	nt	2.0	-4.8%	7%	1
C=CC[C@H]1CC(C)=C[C@H](CC=C)N1C(=O)c1cc(COc2ccccc2SC)on1	-35%	14%	-3	?	-5.7%	20%[15.4 µM]	34
COc1cccc(/C=N/Nc2nnc(C)n2N)c1O	-4%	7%	1	-1.3	nt	22%	-88*
Cc1ccccc1OCC(=O)NCC(=O)OCC(=O)c1ccc([N+](=O)[O-])cc1	-10%	-23%	-14	nt	2.4%&-2.2%	?	8
COc1cc(C2C(C(=O)c3ccco3)=C(O)C(=O)N2Cc2cccnc2)cc(OC)c1OC (stereo not given)	2%	-9%	-2	4.6	-1.0%	6%	-1

Record cards (already shown). Screens in order: gsp antagonist	Sfp PPTase inh	TRPV1 potentiator	Menin MLL FP FL	ClpP mod	gsp agonist	CtBP-E1A blk
COC(=O)c1cc(S(=O)(=O)N2CCN(Cc3ccccc3)CC2)cn1C is listed with 7%	16%	-9	-7.7	1.6%	-65%	0
COc1cccc(/C=N/Nc2nnc(C)n2N)c1O is listed with -4%	7%	1	-1.3	nt	22%	-88*
COc1cc(C2C(C(=O)c3ccco3)=C(O)C(=O)N2Cc2cccnc2)cc(OC)c1OC (stereo not given) is listed with 2%	-9%	-2	4.6	-1.0%	6%	-1

The results go on:
SMILES	gsp antagonist	Sfp PPTase inh	TRPV1 potentiator	Menin MLL FP FL	ClpP mod	gsp agonist	CtBP-E1A blk
CC(CC(=O)N1CCN(S(=O)(=O)c2ccc([N+](=O)[O-])cc2)CC1)c1ccccc1 (stereo not given)	4%	nt	-17	nt	-3.2%	-7%	0
C#CCOCCOCCOCCNc1nc(N2CCN(C(=O)CCCCCCCCCCNC(=O)[C@H](CCCCN)n3cc(C)nn3)CC2)nc(N2CCN(C(=O)CCCCCCCCCCNC(=O)[C@H](CCCCN)n3cc(CCCC(=O)O)nn3)CC2)n1	10%	nt	19	nt	1.2%	nt	-2
Cc1cc(C)cc(CN2C(=O)NC3(CCCCCC3)C2=O)c1	0%	-11%	-12	6.8	nt	13%	-4
Cc1ccc2c(c1)C(c1ccc(F)cc1)N(C(=O)C1CC1)CC(=O)N2 (stereo not given)	-2%	2%	nt	-0.9	-0.9%	-45%[inhibitor]	-1
COc1ccc(NC(=O)Nc2nccs2)cc1	5%	-25%	1	1.1	-1.5%	12%	1
CCOc1ccc2c(c1)S/C(=C\c1cccs1)C(=O)N2	8%	4%	9	?	-2.8%	-2%	-18
COc1ccc(C(=O)COC(=O)Cn2cnc3ccccc3c2=O)c(OC)c1	0%	nt	-7	nt	-1.3%	-10%[15.4 µM]	-7
CC(C)Cn1c(N2CCN(CC(=O)Nc3ccc(Cl)cc3)CC2)nc2ccccc21	-12%	15%	8	-6.7	nt	12%	0
N#Cc1ccc(CN2CCN(C(=O)Cn3nc(C(N)=O)c4ccccc4c3=O)CC2)cc1	0%	12%	3	-0.2	nt	-3%[15.4 µM]	8
Cc1ccccc1NS(=O)(=O)c1ccc(C(=O)NCC(c2ccccc2)N(C)C)cc1 (stereo not given)	4%	10%	9	nt	1.7%	0%[15.4 µM]	3
CC(=O)NC(Cc1c[nH]c2ccccc12)C(=O)Nc1ccc2c(c1)OCO2 (stereo not given)	11%	10%	4	-0.9	-1.1%	-23%	-3
CC1(C)CC(=O)C(C=NCCN2CCN(CC(=O)Nc3ccc(Cl)cc3)CC2)=C(O)C1	7%	14%	-1	0.1	-2.1%	-49%[inhibitor]	nt
CN(C(=O)c1ccc(NC(=O)Cc2ccc(NC(=O)C3CCN(C(=O)C4CCCC4)CC3)cc2)cc1)C1CCCC1	4%	nt	nt	nt	1.3%	nt	-5
CC(=O)NC1(C2CCCCC2=O)CCCCC1 (stereo not given)	0%	21%	nt	2.0	0.1%	-32%[inhibitor]	1
O=C(CCNS(=O)(=O)c1ccccc1)OCC(=O)c1ccc(F)cc1	-12%	nt	-9	nt	-18%	23%[15.4 µM]	3
O=C1CCC(C(=O)N2CCCCO2)CN1Cc1ccc(Cl)cc1 (stereo not given)	8%	0%	4	-1.5	1.5%	-2%	24
CC(O)CN(Cc1cccc(Cl)c1)CC(C)O (stereo not given)	3%	-3%	4	1.9	-0.3%	3%	8
CC(=O)N1CCc2c(sc3c2c(=O)n(-c2ccccc2)c(=O)n3CC(=O)NCC2CCCO2)C1 (stereo not given)	3%	16%	-1	2.0	-4.6%	-72%[inhibitor]	2
CCCCN(C(=O)c1cc2c(s1)CCCC2)c1c(N)n(CCC)c(=O)[nH]c1=O	12%	nt	-3	nt	0.9%	5%	0
COc1ccc(C2C(C(=O)N3CCCC3)c3cc(OC)c(OC)cc3C(=O)N2C)cc1OC (stereo not given)	-1%	-2%	6	-3.5	0.6%	?	5
O=C1CCc2cc(NS(=O)(=O)c3ccc([N+](=O)[O-])cc3)cc3c2N1CC3	-23%	nt	-13	nt	1.8%	-19%[15.4 µM]	6
S=C(Nc1ccc(Br)cc1)NC1CCCC1	-8%	5%	-10	-2.1	-0.3%	2%	1
COC(=O)c1ccccc1NC(=O)CN(c1ccccc1)S(=O)(=O)N(C)C	-14%	nt	nt	nt	-4.0%	-32%[inhibitor]	0
CC(C)CC(NS(=O)(=O)c1ccccc1S(=O)(=O)NC(CC(C)C)C(=O)O)C(=O)O (stereo not given)	7%	-27%	5	-12	0.0%	-18%	nt
CC1=C2C3OC(=O)C(C)C3CCC2(C)C=CC1=NO (stereo not given)	7%	nt	nt	nt	nt	-25%	4
COC(=O)COc1ccc2c(=O)c(Oc3ccccc3Br)coc2c1	2%	6%	4	-0.2	nt	0%	-14
N#CC1=C(N)Oc2ccccc2C12C(=O)Nc1n[nH]c(-c3ccccc3)c12 (stereo not given)	-4%	0%	-2	-2.5	1.3%	?	2
COc1ccccc1NC(=O)c1nn(-c2cccc(C(F)(F)F)c2)ccc1=O	-18%	14%	5	5.9	-2.7%	-1%	-21
COc1ccc(C2NC(=O)c3ccccc3N2)cc1 (stereo not given)	14%	4%	-9	-0.1	1.5%	-20%[15.4 µM]	-17
O=C(CCn1c(=O)c2ccccc2n(Cc2cccnc2)c1=O)NCc1ccc2c(c1)OCO2	1%	13%	4	-1.0	-6.1%	6%	-6

Just Sfp PPTase inh (two entries from above):
compound | Sfp PPTase inh
COC(=O)c1cc(S(=O)(=O)N2CCN(Cc3ccccc3)CC2)cn1C | 16%
O=S(=O)(NCc1cc(-c2ccccc2Cl)no1)c1ccccc1 | -4%

(cont.)
SMILES	gsp antagonist	Sfp PPTase inh	TRPV1 potentiator	Menin MLL FP FL	ClpP mod	gsp agonist	CtBP-E1A blk
CCN(CC)c1nc2ccccc2[nH]c1=O	-1%	8%	1	4.9	-1.6%	-14%	3
CCCN(CCC)C(=O)c1cc(S(=O)(=O)N2CCCCC2)c[nH]1	-6%	8%	?	0.3	-2.1%	?	1
CCCc1nn(C)c(C(=O)Nc2ccccc2)c1Cl	-4%	3%	-13	-2.4	-22%	-10%	0
CCOc1ccccc1NC(=O)CSc1ccc([N+](=O)[O-])cc1	-4%	-1%	-15	-5.6	nt	8%[15.4 µM]	6
CC(=O)N1CCc2c(sc(NC(=O)c3ccc([N+](=O)[O-])o3)c2C(N)=O)C1	nt	nt	nt	nt	-2.8%	?	-25
CNC(=S)N1CCN(c2ccc(OC)cc2)CC1	-4%	10%	4	-0.9	-3.2%	14%	5
O=C1C(Cl)=C(N2CCCCC2)C(=O)N1Cc1ccccc1	3%	-20%	-11	5.7	1.6%	-22%	113
O=[N+]([O-])c1ccccc1NS(=O)(=O)c1ccccc1	nt	nt	nt	nt	0.9%	-2%	0
Cc1noc(C)c1COC(=O)C1(c2cccc(F)c2)CCCC1	?	6%	-15	1.5	-0.6%	4%	10
Cc1cc(N2CCOCC2)c2c(N)cc(C)c(C)c2n1	-13%	13%	9	1.8	-25%	8%	2
CCOC(=O)/C(C#N)=C\c1ccc(O)c(OC)c1	-9%	18%	?	?	nt	13%[15.4 µM]	-1
O=C1CCCC2=C1C(c1ccncc1)c1c(nc(SCc3ccccc3Cl)[nH]c1=O)N2 (stereo not given)	-12%	-20%	13	4.7	?	?	-13
O=c1cc(C(O)C[N+](=O)[O-])occ1OCc1ccccc1 (stereo not given)	1%	nt	nt	nt	nt	-3%[15.4 µM]	-3
